Bioassay records (PubChem BioAssay)
Rce1 inhib: yeast Ras-converting enzyme inhibition; calls only; yeast membranes, quenched prenylated peptide cleavage fluorescence; AID 2563; 290,000 tested, 0.27% active; Q03530;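 active = fall in fluorescence gain of 50% or more versus controls, with final raw signal at or below 3038400; inconclusive = same 50% fall but final raw signal above 3038400; inactive = fall in fluorescence gain under 50%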;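 also: plate controls were neutral control wells for no effect and wells lacking membranes for full effect; tested at 10 µM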
CSC inhib: blocks cancer stem cells | inhibition, % at 7.5 µM | 300,000 tested, 1.1% active | cancer stem cell-like cells viability, luminescence | AID 2717;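 active = mean at 75% or more and at least half the replicates too; inconclusive = mean and replicates disagree; tested in HMLE shEcad cells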;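 also: 0% = median of negative and 100% = median of positive control wells; the first replicate is given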
Yeast UUG start: modulators of start codon recognition fidelity in yeast. activity score, % at 18.7 µM. 350,000 tested, 0.13% active. S. cerevisiae UUG-firefly luciferase reporter, luminescence/redox ratio;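 active = replicate mean at a twofold rise or more, about +100% in these data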;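 also: firefly luciferase made from a UUG start codon reports start codon fidelity; reporter light over untreated wells divided by growth signal over untreated wells; some hits fall short of that in this replicate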
HIV Env fusion: HIV envelope-mediated fusion inhibition; HeLa-JRFL Env/CEM21 cell fusion, luciferase; inhibition, % at 12.3 µM; 360,000 tested, 1.1% active; AID 651610;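 active = mean replicate inhibition score of at least 50 and every replicate individually at or above 50; inconclusive = only one of the two criteria met; inactive = mean below 50 and not all replicates reaching 50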;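 also: 0% = plate neutral controls and 100% = maraviroc near 300 nM; one replicate is shown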
eIF4H inh: inhibitors of RNA binding by human eIF4H; Q15056; 290,000 tested, 0.94% active; eIF4H fluorescence polarization binding assay; inhibition, % at 35 µM;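 active = 50% or more with normal probe brightness, or confirmed in later tests; inconclusive = above 50% with abnormal brightness, or retests that disagree; inactive = below 50% or failed in later tests; about a fifth of its hits are not listed in these tables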;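 also: calls also rest on retests at 20 µM and on dose response follow-up; 0% = protein and probe with vehicle and 100% = probe without protein; strong numbers were not always called active; many hits fall short of the cut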
MT1-MMP act inh: MT1-MMP (human) activation inhibition; AID 651647; GFP/RFP ratio change, % at 20 µM; HT1080 RFP-PRO-GFP cells, GFP/RFP ratio fluorescence, overnight; percent of plate control window, DMSO zero; 360,000 tested, 0.061% active;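 active = GFP/RFP ratio change of at least 30% with cell ATP level not reduced by more than half and red fluorescence within 50% of control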; also: strong numbers were not always called active
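Assay system: HT1080 RFP-PRO-GFP cells | Dosing: 20 µM single dose, 1% DMSO | Incubation: Cells overnight before dosing, compound overnight, 37 °C, 5% CO2 | Evaluation: GFP/RFP fluorescence ratio | Control set: DMSO-only wells and HT1080 RFP-L50D-GFP cell wells as references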
PABP FP inh: blocks human PABP binding to poly(A) RNA. inhibition, % at 35 µM. fluorescence polarization. P11940. 290,000 tested, 1% active;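 active = 50% or more with normal probe brightness, or confirmed in later tests; inconclusive = above 50% with abnormal brightness, or retests that disagree; inactive = below 50% or failed in later tests; about a fifth of its hits are not listed in these tables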;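 also: calls also rest on retests at 20 µM and on dose response follow-up; controls were probe without protein and protein plus probe with vehicle; some compounds called inactive have numbers as strong as hits; many hits fall short of the cut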
Target sequence (P11940 whole entry, looked up): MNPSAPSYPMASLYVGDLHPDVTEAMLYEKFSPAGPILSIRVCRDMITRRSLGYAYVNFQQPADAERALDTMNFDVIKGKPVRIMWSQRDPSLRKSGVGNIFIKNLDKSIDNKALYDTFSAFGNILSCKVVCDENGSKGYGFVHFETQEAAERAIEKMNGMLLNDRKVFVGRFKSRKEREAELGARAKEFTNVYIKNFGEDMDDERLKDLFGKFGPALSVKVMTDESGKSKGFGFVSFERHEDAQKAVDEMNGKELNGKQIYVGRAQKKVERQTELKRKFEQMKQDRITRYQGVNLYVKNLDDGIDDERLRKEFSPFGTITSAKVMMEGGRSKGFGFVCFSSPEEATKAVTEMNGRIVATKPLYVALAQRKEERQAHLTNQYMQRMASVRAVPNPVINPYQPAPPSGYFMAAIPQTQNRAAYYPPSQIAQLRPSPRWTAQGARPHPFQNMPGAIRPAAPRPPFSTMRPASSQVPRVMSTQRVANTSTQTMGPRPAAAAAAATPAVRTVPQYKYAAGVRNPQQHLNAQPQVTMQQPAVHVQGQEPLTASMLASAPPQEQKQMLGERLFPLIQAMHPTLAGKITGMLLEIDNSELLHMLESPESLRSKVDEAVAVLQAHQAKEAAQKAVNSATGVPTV
eIF4H inh retest: second read-out of eIF4H inh, no call of its own (marks repeat the call); inhibition, %; compound at 20 µM; confirmation average;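 mean of two retest wells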
PABP FP inh retest: recorded beside PABP FP inh, whose call it bears; inhibition, %; compound at 20 µM; confirmation repeats;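 mean of two retest wells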
MT1-MMP act inh RFP: also measured in MT1-MMP act inh; calls as there; RFP signal change, %; measured here: RFP expression control read;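 0 = vehicle wells; hits needed this value within 50% of zero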
* hit, by the source's call; i = inactive; u = inconclusive; x = no result given.

SMILES	Rce1 inhib	CSC inhib	Yeast UUG start	HIV Env fusion	eIF4H inh	MT1-MMP act inh	MT1-MMP act inh RFP	PABP FP inh	others
COC(=O)C1=C(c2ccc(-c3ccccc3)c(F)c2)C[C@@H]2CC[C@H]1N2C(=O)NCCCOC(C)C	x	15	13	-19	x	0	-10	x
Cc1ccc(OCCOc2cccc(C=C3C(=O)NC(=O)NC3=O)c2)c(C)c1	i	2	-24	50	-3	0	0	5
COc1ccc(-c2ccc3c(c2)CNCc2cnnn2-3)cc1	x	x	-2	-26	x	3	1	x
Cn1c(O)c(C(=O)c2ccccc2Cl)c(=O)n(C)c1=O	i	-16	-9	-39	-4	2	3	13
COc1ccc(OC)c(CC(=O)N(C)C2CCCN(Cc3ccccc3F)C2)c1 (centres undefined)	i	7	2	-3	3	1	0	0
O=c1[nH]c(=O)n(Cc2ccc(F)cc2)c(O)c1C=NCc1cccnc1	i	x	-18	x	-5	4	1	-1
O=C(Nc1ccc(Cl)cc1)O/N=C(\c1ccccc1)c1ccccn1	i	4	-29	x	-1	0	0	-12
CCN1C[C@@]2(COC)C3[C@@H](OC)[C@H]4[C@@H]1[C@@]3(C1C[C@H]3[C@H](OC(=O)c5ccccc5)C1[C@]4(OC(C)=O)C[C@H]3OC)[C@@H](OC)C[C@H]2O (some centres undefined)	i	5	-14	x	x	4	7	x
NS(=O)(=O)c1nc[nH]c1[N+](=O)[O-]	x	x	-17	0	x	-2	3	x
CC(C)NC(C)C(=O)C12CC3CC(CC(C3)C1)C2 (centres undefined)	i	20	4	x	-8	-1	1	-9
CC1CCCCN1C(=O)c1ccc(N2CC3CC(C2)c2cccc(=O)n2C3)c([N+](=O)[O-])c1 (centres undefined)	i	0	x	3	-1	5	1	8
FC(F)(F)c1ccccc1CN1CCN(Cc2ccccc2)CC1	i	7	-8	x	1	2	2	12
Cc1cccc(N2C(=O)NC(=O)/C(=C\c3cccn3-c3ccc(Cl)cc3)C2=O)c1	i	4	-16	x	55	14	14	34	eIF4H inh retest=3;PABP FP inh retest=34
O=C(c1ccc(Cl)cc1)C1CCCN(Cc2cccc3ncccc23)C1 (centres undefined)	i	8	x	-16	-1	-4	-23	6
Cc1cc([N+](=O)[O-])c(Cl)cc1NC(=O)C(C)C	i	-24	x	3	13	2	3	3
CC(=NCCO)c1c(O)n(C2CCCCC2)c(=O)[nH]c1=O	i	2	-10	x	-2	-1	4	-2
CN1CCN(c2ccc(S(=O)(=O)C(F)(F)F)cc2[N+](=O)[O-])CC1	i	0	-13	-2	-4	2	1	1
COC(=O)C1=C(c2ccc(OCc3ccccc3)cc2)C[C@@H]2CC[C@H]1N2C(=O)NCc1ccccc1C(F)(F)F	x	x	-10	-95	x	-10	-12	x
C=CCn1c(O)c(C(C)=Nc2ccc(NC(C)=O)cc2)c(=O)[nH]c1=O	i	-5	0	x	-10	7	2	-2
N#CC(C#N)=C(N)c1cccnc1	i	5	x	8	8	-1	3	-2
C=CCN1CCc2cccc3c2[C@H]1Cc1ccc(O)c(O)c1-3	i	-6	-5	-8	-4	2	-2	8
COc1cc2c(cc1OC)-c1c(OC)c(OC)cc3c1C(C2)N(C)CC3 (centres undefined)	i	26	-26	x	27	9	8	58	eIF4H inh retest=8;PABP FP inh retest=20
O=C(Cc1ccccc1)OCCN1CCCCC1	i	5	-7	x	2	-2	1	6
Fc1cccc(CN2CCN(c3ccc(Cl)cc3)CC2)c1	i	13	-9	7	-11	-1	-2	-1
CNC(=O)Nc1ccc(C(O)(C(=O)OC)C(F)(F)F)cc1 (centres undefined)	i	-6	-20	-15	-6	-1	1	1
CC1(c2ccccc2)NCCN2C(=O)CSC21 (centres undefined)	i	-11	-8	-4	3	-2	6	1
NP(=O)(OCC(F)(F)F)Oc1ccc(Cl)cc1 (centres undefined)	i	-11	-4	x	-2	4	4	-7
CCOC(=O)C1(c2ccccc2)CCN(CCC(C#N)(c2ccccc2)c2ccccc2)CC1	i	29	3	30	x	-10	-16	x
Cc1nn(Cc2ccccc2)c(Cl)c1C(=O)O	i	x	13	-9	8	0	2	12
O=C1NC(=O)N(c2ccc3c(c2)OCO3)C(=O)/C1=C/c1ccc(N2CCCC2)o1	i	-5	x	-11	u	-79	7	0

Eleven structures from above, sorted by number of heavy atoms, lowest first.
SMILES	Rce1 inhib	CSC inhib	Yeast UUG start	HIV Env fusion	eIF4H inh	MT1-MMP act inh	MT1-MMP act inh RFP	PABP FP inh	others
N#CC(C#N)=C(N)c1cccnc1	i	5	x	8	8	-1	3	-2
Cc1cc([N+](=O)[O-])c(Cl)cc1NC(=O)C(C)C	i	-24	x	3	13	2	3	3
O=C(Cc1ccccc1)OCCN1CCCCC1	i	5	-7	x	2	-2	1	6
CNC(=O)Nc1ccc(C(O)(C(=O)OC)C(F)(F)F)cc1 (centres undefined)	i	-6	-20	-15	-6	-1	1	1
C=CCN1CCc2cccc3c2[C@H]1Cc1ccc(O)c(O)c1-3	i	-6	-5	-8	-4	2	-2	8
CN1CCN(c2ccc(S(=O)(=O)C(F)(F)F)cc2[N+](=O)[O-])CC1	i	0	-13	-2	-4	2	1	1
C=CCn1c(O)c(C(C)=Nc2ccc(NC(C)=O)cc2)c(=O)[nH]c1=O	i	-5	0	x	-10	7	2	-2
COc1cc2c(cc1OC)-c1c(OC)c(OC)cc3c1C(C2)N(C)CC3 (centres undefined)	i	26	-26	x	27	9	8	58	eIF4H inh retest=8;PABP FP inh retest=20
O=C1NC(=O)N(c2ccc3c(c2)OCO3)C(=O)/C1=C/c1ccc(N2CCCC2)o1	i	-5	x	-11	u	-79	7	0
CCOC(=O)C1(c2ccccc2)CCN(CCC(C#N)(c2ccccc2)c2ccccc2)CC1	i	29	3	30	x	-10	-16	x
COC(=O)C1=C(c2ccc(OCc3ccccc3)cc2)C[C@@H]2CC[C@H]1N2C(=O)NCc1ccccc1C(F)(F)F	x	x	-10	-95	x	-10	-12	x

Next structures follow:
SMILES	Rce1 inhib	CSC inhib	Yeast UUG start	HIV Env fusion	eIF4H inh	MT1-MMP act inh	MT1-MMP act inh RFP	PABP FP inh	others
CN1CCC2(CC1)NC(=O)c1ccccc1N2	x	x	x	-4	2	x	x	-7
O=c1c(C=NCc2cccs2)c(O)n(C2CCCCC2)c(=O)n1C1CCCCC1	i	46	-9	x	1	-12	-17	-4
C=CP(=O)(O)c1ccccc1	i	7	-16	x	-3	-5	3	19
CCN1CCN(c2ncnc3ccc(Br)cc23)CC1	i	x	-10	47	12	-12	2	-4
COC(=O)C1=C(c2cccc(OC)c2OC)C[C@@H]2CC[C@H]1N2C(=O)N1CCCCC1	i	-8	15	-11	x	2	-3	x
Fc1ccc(C(OCCN2CCCC2)c2ccc(F)cc2)cc1	i	x	-5	-2	6	x	x	-7
O=C(CNC(=O)c1ccccc1)Nc1ccc(Br)cc1C(=O)c1ccccc1	i	-1	-6	-64	-1	0	-9	-5
CC(=O)OC1N=C(c2ccccc2)c2cc(Br)ccc2N(C)C1=O (centres undefined)	i	-20	-6	-35	-7	8	6	3
O=c1c(/C=N/N2CCOCC2)c(O)n(-c2ccccc2)c(=S)n1-c1ccccc1	i	6	x	6	5	-4	3	6
Cc1cc(C(=O)CS(=O)c2ccc(F)cc2)cc(C)c1OC(=O)N(C)C (centres undefined)	i	8	x	2	-3	-2	4	-9
Cc1ccc(C(c2nnnn2Cc2ccccc2)N2CC=C(c3ccc(F)cc3)CC2)cc1 (centres undefined)	i	24	-7	-5	32	-4	-6	-1
C=CCn1c(O)c(C(C)=NCCCO)c(=O)[nH]c1=O	i	-11	-4	x	-6	-2	3	0
COC(=O)C1=C(c2ccccc2)C[C@@H]2CC[C@H]1N2C(=O)NCc1cccc2ccccc12	i	8	1	-30	x	1	-3	x
COc1cc(C[C@@H](C)N)c(OC)cc1I	i	-8	-10	x	-9	-1	6	0
O=C(CNC(=O)OCc1ccccc1)Nc1ccc(Br)cc1C(=O)c1ccccc1Cl	i	20	x	-4	6	-7	-10	93	eIF4H inh retest=7;PABP FP inh retest=2

Looked up one by one from above (2):
SMILES	Rce1 inhib	CSC inhib	Yeast UUG start	HIV Env fusion	eIF4H inh	MT1-MMP act inh	MT1-MMP act inh RFP	PABP FP inh	others
CN1CCC2(CC1)NC(=O)c1ccccc1N2	x	x	x	-4	2	x	x	-7
COc1cc(C[C@@H](C)N)c(OC)cc1I	i	-8	-10	x	-9	-1	6	0

Next part
SMILES	Rce1 inhib	CSC inhib	Yeast UUG start	HIV Env fusion	eIF4H inh	MT1-MMP act inh	MT1-MMP act inh RFP	PABP FP inh	others
Cc1ccc(-n2c(/C=C/c3ccccn3)nc3ccccc3c2=O)cc1	i	x	-8	-1	-3	-17	-18	-5
COc1ccc2[nH]cc(CCN=C(N)N)c2c1	i	-21	-13	-1	-6	-6	-2	5
C/C(=N/OC(=O)N(C)C)c1ncc(C(F)(F)F)cc1N1CCOCC1	i	-17	-2	-6	-11	-3	3	-22
CCCOc1ccccc1C1SCC(=O)Nc2c1c(=O)[nH]n2C(C)CCC (centres undefined)	i	7	-13	x	1	-14	-12	8
C=C[C@@H]1C[C@@]1(C)[C@@H](NP(=O)(c1ccccc1)c1ccccc1)c1ccccc1	i	7	-8	45	0	-4	-1	-8
Cc1ccccc1N1C(=O)NC(=O)/C(=C\c2cnn(-c3ccccc3)c2)C1=O	i	-5	x	-12	-10	1	2	3
CCCN(CCC)[C@@H]1CCc2cccc(O)c2C1	i	-12	-9	31	-5	0	0	1
O=C(c1ccc(F)cc1)C(Cc1ccccc1)N1CCCCC1 (centres undefined)	i	9	x	14	3	0	7	-9
O=P(NS(=O)(=O)c1ccc(Cl)cc1)(Oc1ccccc1)Oc1ccccc1	i	5	3	x	-3	x	x	-5
Cc1cc2oc(=O)cc(-c3cc4ccccc4o3)c2cc1OC(=O)N(C)C	i	-13	-13	2	4	2	3	9
COc1ccccc1CCNC1CCC(C)CC1 (centres undefined)	i	10	x	-15	-6	3	6	-6
CC1(C)N(O)C2CCCCC2N1O (centres undefined)	i	-6	-27	x	-5	0	2	6
c1ccc(CCNCc2ccccc2)cc1	i	-12	x	11	-4	-9	0	2
Cc1ccc(CN2CCCC(C(=O)c3cccc(C(F)(F)F)c3)C2)o1 (centres undefined)	i	-7	5	-12	2	-3	-1	2
CCN(CC)CCOC(=O)c1ccc(N=Cc2c(O)[nH]c(=O)[nH]c2=O)cc1	i	-3	-13	15	u	-17	-3	u
[O-][n+]1onc2c1CCC1N(O)CCC21O (centres undefined)	i	-1	-10	-162	-5	7	4	2
O=c1[nH]c(Cl)ccc1CN1CCOCC1	i	-3	-13	9	x	3	1	x
CCOC(=O)c1c(C=O)c2ccccc2n1Cc1ccccc1	i	10	-6	4	-3	-4	-4	3
CCCCn1c(O)c(/C=C2/C=CC=N2)c(=O)[nH]c1=O	i	10	-5	-12	-6	-19	26	-5

Some of the compounds tested; count on the stated rates, not on these rows.
